# Screens deposited in PubChem by National Center for Advancing Translational Sciences (NCATS).
# StopGo reporter: FMDV 2A StopGo reporter, luciferase signal; Potency, µM (highest dose often 57.9 µM), without a hit: at the highest dose signal change, negative = less light; human cells with a luciferase reporter of 2A StopGo recoding; control for the full effect not named in the record; hit rate 1.2% among 410,000; AID 1159524; active = well fitted falling curve with a large enough effect; inconclusive = small, poorly fitted or top-dose-only effect; inactive = no such curve, though single readings can be large or run the other way; tested in HEK293T cells; also: % is scaled to controls: 0 for no effect and ±100 for the full control effect; nearly all actives have a fitted effect of over 45% in size; luciferase light after 4 h
# Cruzain inh Det: blocks cruzain activity in presence of Triton detergent; P25779; purified cruzain, Z-FR-AMC fluorescence, 0.01% Triton; Potency, µM, for the others: max response, negative = inhibition, usual class: inhibitors; hit rate 0.43% among 200,000; AID 1478;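 also: plate controls were neutral wells for no effect and buffer without enzyme for full effect; nearly all actives have a fitted effect of over 40% in size; top concentration of the series not given in the record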
# Target sequence (P25779 123-467 limits assumed): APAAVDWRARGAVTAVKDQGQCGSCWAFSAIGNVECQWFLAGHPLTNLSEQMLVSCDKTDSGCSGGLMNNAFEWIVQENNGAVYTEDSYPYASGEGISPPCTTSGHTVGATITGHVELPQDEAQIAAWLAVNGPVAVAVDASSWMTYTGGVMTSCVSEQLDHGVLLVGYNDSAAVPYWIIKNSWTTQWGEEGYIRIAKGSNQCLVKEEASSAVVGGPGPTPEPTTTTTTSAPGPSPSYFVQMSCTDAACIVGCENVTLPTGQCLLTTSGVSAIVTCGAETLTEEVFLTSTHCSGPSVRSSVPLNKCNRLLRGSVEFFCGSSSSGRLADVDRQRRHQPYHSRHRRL
#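 In this qHTS format, compounds are incubated with 1.5 nM cruzain for 15 min at room temperature before 2 uM Z-FR-AMC is added. Release of AMC is followed at 360/450 nm, and progress is taken as the 60 s fluorescence difference.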
# Cruzain inh noDet: inhibitors of Trypanosoma cruzi cruzain without detergent | P25779 | purified cruzain, Z-FR-AMC fluorescence, no detergent | Potency, µM, for the others: max response, negative = inhibition, actives largely listed as inhibitors | hit rate 2.3% among 200,000 | AID 1476;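 also: plate controls were enzyme without inhibitor for no effect and buffer without enzyme for full effect; nearly all actives have a fitted effect of over 40% in size; top concentration of the series not given in the record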
#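 Purified cruzain at 1.5 nM, pre-incubated 15 min with compound at room temperature in 100 mM sodium acetate pH 5.5, 5 mM DTT, 0.00005% Triton X-100. Reaction started with 2 uM Z-FR-AMC; AMC fluorescence increase over 60 s gives rate.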
# NS1 inh: influenza NS1 inhibition | Potency, µM (top dose mostly 46.1 µM), inactives show top-dose activity, positive = more growth | hit rate 0.4% among 270,000 | S. cerevisiae slowed by influenza A NS1, growth recovery by OD600; active means well fitted rising curve with a large enough effect; inconclusive means small, poorly fitted or top-dose-only effect; inactive means no such curve, though single readings can be large or run the other way; also: nearly all actives have a fitted effect of over 50% in size
#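 Recovery from NS1-induced slow growth read by OD600 in budding yeast switched to galactose assay medium (pH 6.0, -URA) at 1:100 dilution. Compound 23 nl per well; the matching strain lacking NS1 serves as control.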
# SARS PLpro yeast: inhibitors of SARS-CoV papain-like protease in yeast; Potency, µM (doses to about 32.9 µM), inactives show top-dose activity, positive = growth rescue; hit rate 0.19% among 330,000; S. cerevisiae expressing SARS-CoV PLpro, growth rescue; control for the full effect not named in the record; active means well fitted rising curve with a large enough effect; inconclusive means small, poorly fitted or top-dose-only effect; inactive means no such curve, though single readings can be large or run the other way; also: 0% is about no effect; nearly all actives have a fitted effect of over 55% in size; growth read by luminescence after 48 h
# LASV entry inh: Lassa virus entry inhibition; AID 540256; Lassa virus pseudotype entry inhibition, cell reporter; control for the full effect not named in the record; Potency, µM (titrated, usually from 37.9 µM), without a hit: at the highest dose activity change, negative = inhibition, hits mostly inhibitors; hit rate 1.2% among 300,000; active means well fitted inhibition curve with a large enough effect; inconclusive means small, poorly fitted or top-dose-only effect, or effect the other way; inactive means flat fitted curve, though single readings scatter; tested in HEK293 cells; also: % is scaled to controls: 0 for no effect and ±100 for the full control effect; nearly all actives have a fitted effect of over 50% in size; luciferase read-out
# Marburg entry inh: inhibitors of Marburg virus binding or cell entry | Marburg virus pseudotyped entry inhibition, cell reporter; control for the full effect not named in the record; about a third of the inactives were read at about 46 µM | Potency, µM (highest dose often 37.8 µM), without a hit: at the top dose activity change, negative = inhibition, hits mostly inhibitors | hit rate 1.8% among 300,000; active = well fitted inhibition curve with a large enough effect; inconclusive = small, poorly fitted or top-dose-only effect, or effect the other way; inactive = flat fitted curve, though single readings scatter; tested in HEK293 cells; about a fifth of its hits are not listed in these tables; also: % is scaled to controls: 0 for no effect and ±100 for the full control effect; luciferase read-out
# RE007 growth inh: less growth of the S. pombe RE007 Vpr strain | S. pombe RE007 Vpr strain, BacTiter-Glo ATP luminescence, 24 h; control for the full effect not named in the record | Potency, µM (series often up to 92.2 µM), for inactives: at the top dose activity change, negative = less growth | hit rate 0.21% among 360,000; active = well fitted falling curve with a large enough effect; inconclusive = small, poorly fitted or top-dose-only effect; inactive = no such curve, though single readings can be large or run the other way;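 also: % is scaled to controls: 0 for no effect and ±100 for the full control effect; nearly all actives have a fitted effect of over 50% in size; the assay follows cell death caused by Vpr and the record does not say whether a fall means rescue or toxicity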
#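 Fission yeast strain RE007, carrying one chromosomally integrated HIV-1 vpr copy, was seeded at OD 0.01 in PMG+AL medium with 23 nL pinned compound. After 24 h at 30 °C and 99% humidity, viability was read by BacTiter-Glo luminescence.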
# Active calls of the source: *; ? = inconclusive; nt = no result given; & = joins results of further samples; [ ] = another dose, or the depositor's remark. Unless noted, calls follow the shape of the dose curve; as a rule, active = well fitted curve in the direction sought with a large enough effect; inconclusive = small, poorly fitted or top-dose-only effect, or another doubt; inactive = no such curve, though single readings can be large; an effect the other way counts as inactive or inconclusive. Potency is read from the fitted curve at half-maximal effect.
SMILES,StopGo reporter,Cruzain inh Det,Cruzain inh noDet,NS1 inh,SARS PLpro yeast,LASV entry inh,Marburg entry inh,RE007 growth inh
COc1ccc(CC(=O)NNC(=O)c2ccc(SCc3cc(F)ccc3F)c([N+](=O)[O-])c2)cc1,-17%,3.5%,-14%,11%,6%,-39%[14.3 µM],-22%,-6%
O=C(NCc1ccncc1)C1COc2ccccc2O1 (stereo not given),11%,5.2%,10%,0%,-2%,-2%,3%,-7%
Cc1[nH]c(-c2ccc(F)cc2)cc1C(=O)N1CCN(c2ccc(Cl)cc2)CC1,?,nt,nt,4%,-7%,nt,nt,-10%
CCOC(=O)/C=C/C(=O)Nc1ccc(S(=O)(=O)Nc2c(C)cc(C)cc2C)cc1,?,-6.7%,5%,7%,3%,-1%,?,5%
O=C(N/N=C/c1cccs1)c1cc(C2CC2)nc2ccccc12,-9%,-7.9%,-6%,4%,-20%,-26%,?,14%
Cc1cccc(NC(=O)c2cccc(S(=O)(=O)Nc3c(C)n(C)n(-c4ccccc4)c3=O)c2)c1,-2%,nt,nt,nt,nt,-14%,0%,-4%
CCS(=O)(=O)N1CCN(c2ccccc2)CC1,-9%,nt,nt,3%,-5%,26%,-17%[46.1 µM],6%
O=C(COC(=O)CNC(=O)c1ccc(Cl)cc1Cl)NC1CCCCCCC1,-11%,nt,nt,nt,0%,?,14%[46.1 µM],-3%
CCCCC(=O)OC1=CN(Cc2ccccc2)S(=O)(=O)c2ccccc21,-2%,-6.5%,-3%,nt,nt,0%[46.1 µM],3%[46.1 µM],nt
CC1CCCN(C(=O)COC(=O)Cc2ccc(Cl)cc2)C1 (stereo not given),6%,nt,nt,-6%,2%,8%,-13%[46.1 µM],0%
COc1ccc(OC)c(S(=O)(=O)N2CCN(c3ccccn3)CC2)c1,nt,3.0%,5%,-37%,-2%,2%,-10%,3%
Cc1nc2ncccn2c1-c1csc(Nc2cccc(C(=O)O)c2)n1,1%,nt,nt,6%,3%,-1%,11%[46.1 µM],-11%
CCOC(=O)N1CCN(C(=S)NC(=O)c2ccc(F)cc2)CC1,-14%,nt,nt,0%,1%,-13%[46.1 µM],2%[46.1 µM],3%
CCS(=O)(=O)N1Cc2ccccc2CC1C(=O)OCC(=O)Nc1ccc(C)cc1 (stereo not given),-24%,-2.5%,11%,3%,0%,-1%,11%,0%
CCC(C(=O)NCCCN1CCOCC1)n1c2ccccc2c2nc(=O)cc(C)n21 (stereo not given),6%,nt,nt,7%,-5%,23%[46.1 µM],12%[46.1 µM],5%
CCOc1cc(C2CC(=O)Nc3c2c(C)nn3-c2nc(C)cc(C)n2)ccc1O (stereo not given),-20%,-1.5%,-6%,nt,nt,12%[46.1 µM],4%[46.1 µM],nt
CCc1c(C)c2ccc(O)c(CN(C)C)c2oc1=O,29%,?,?,2%,-7%,4%,12%,-10%
CN(C)S(=O)(=O)c1ccc(C(=O)Nc2ccccc2F)cc1,9%,1.2%,-10%,0%,-3%,?,10%,-14%
Clc1ncc(CSc2ccccc2)s1,8%,nt,nt,8%,0%,-1%,6%[46.1 µM],16%
CCOC(=O)N1CCN(C(=O)CSc2nc(-c3cccc(C)c3)ns2)CC1,-28%,-2.7%,?,-38%,0%,?,7%,-22%
COc1ccc(CN(C(=O)c2cc3ccccc3oc2=O)C2CCCCC2)cc1OC,22%,-18%,?,-6%,-5%,-19%,?,3%
COCCNC(=O)CN(C(=O)CCC(=O)Nc1cc(C)on1)c1ccccc1C,14%,2.4%,0%,5%,1%,-3%,0%,14%
O=C(CSc1nc2scc(-c3ccccc3)c2c(=O)[nH]1)N1CCCCC1,-3%,nt,nt,nt,0%,-6%[46.1 µM],3%,3%
COc1ccc(OC)c(NC(=O)C(Sc2ccccc2)c2ccccc2)c1 (stereo not given),?,-12%,-5%,5%,7%,?,?,9%
S=C(Nc1ccc(Br)cc1Cl)N1CCC2(CC1)OCCO2,131%[activator],nt,nt,-4%,0%,nt,?,-7%
CCN(CC)S(=O)(=O)c1ccc(C(=O)NCc2nnc(SCC(=O)OC)n2C)cc1,8%,2.1%,1%,-9%,-3%,0%,13%,1%
O=C(NCC(=O)N(Cc1cccs1)C(C(=O)NC1CCCC1)c1ccco1)c1cccs1 (stereo not given),-13%,-0.2%,4%,-12%,-1%,-16%,-6%&-23%,6%
COc1cc(/C=N/NC(=O)c2ccncc2)ccc1OCC(=O)Nc1ccccc1,18%,nt,nt,-11%,-2%,-7%[46.1 µM],?,6%
CCc1ccccc1NC(=O)c1cc(S(=O)(=O)N(CC)c2ccccc2)ccc1F,?,-0.3%,-5%,nt,nt,?,nt,nt
CNC(=S)N(CCCN(C)C)Cc1cc2cc3c(cc2[nH]c1=O)OCCO3,-5%,nt,nt,-3%,-8%,nt,nt,8%
O=C(CNC(=O)c1cccs1)N/N=C/c1ccc(O)cc1O,18%,nt,nt,nt,3%,-16%,-3%[46.1 µM],-15%
Cc1ccccc1OCCCC(=O)Nc1ccc(S(=O)(=O)Nc2onc(C)c2C)cc1,-1%,nt,nt,-34%,0%,-14%[46.1 µM],12%[46.1 µM],-10%
CCc1ccc(OCCSc2nc(-c3cccc(C)c3)nc3cc(=O)[nH]n23)cc1,-21%,2.2%,-8%,nt,nt,9%[46.1 µM],nt,nt
Cn1nc(C(=O)NNC(=O)C2CSC3(C)CCC(=O)N23)c2ccccc2c1=O (stereo not given),7%,nt,nt,nt,2%,4%[46.1 µM],?,4%
Cc1ccc(/C=C/C(=O)c2ccc(N3CCOCC3)cc2)s1,-26%,nt,nt,nt,-10%,?,?,-17%
Cc1cccc(NC(=O)CSc2nc(-c3cccc(C)c3)nc3c2Cc2c(CO)cnc(C)c2O3)c1,-16%,-1.7%,6%,nt,nt,19%[46.1 µM],nt,nt
Cc1ccc2[nH]c(=O)c(CN(Cc3ccco3)S(=O)(=O)c3c(C)ccc4nsnc34)cc2c1,nt,-7.0%,2%,-2%,-1%,?,?,-10%
CC(C)c1ccc2[nH]c3nc(SCC(=O)N4CCOCC4)nnc3c2c1,-2%,nt,nt,nt,-2%,-7%[46.1 µM],?,2%
Clc1ccccc1CNCC1CCCO1 (stereo not given),-14%,nt,nt,-10%,-1%,-1%,12%,-6%
C=CCn1c(C)cc(C(=O)CSc2nnc3c(Cl)cc(Cl)cn23)c1C,-2%,5.0%,-3%,6%,5%,-2%,10%,-1%
CS(=O)(=O)N1CCc2cc(S(=O)(=O)N3CCCCC3)ccc21,1%,nt,nt,nt,1%,1%[46.1 µM],-28%[46.1 µM],10%
CN(C)CCN(CC1CCCN(Cc2ccccc2F)C1)C(=O)c1ccc(F)cc1 (stereo not given),6%,nt,nt,-6%,-3%,-5%[46.1 µM],?,0%
C=CCn1c(SCC(=O)Nc2cc(OC)c(NC(=O)c3ccco3)cc2OC)nnc1-c1ccncc1,5%,-4.1%,?,16%,-6%,16%,-11%,5%
COc1cc(/C=C(/NC(=O)c2ccccc2Cl)C(=O)O)cc(OC)c1OC,7%,1.1%,-11%,-3%,7%,-3%,-1%,8%
Cc1cccc(N2C(=O)N(Cc3ccc(C(C)(C)C)cc3)c3ccccc3S2(=O)=O)c1,-14%,0.5%,?,nt,nt,-24%[46.1 µM],nt,nt
COc1ccc(NC(=O)CC(C)c2ccccc2)c([N+](=O)[O-])c1 (stereo not given),9%,-3.8%,-14%,3%,-3%,?,21%,-19%
COc1ccc(N2CCN(CCNS(=O)(=O)c3cccc4nsnc34)CC2)cc1,?,4.5%,-7%,-8%,4%,-15%,-19%,-6%
CCC(CC)=NNc1ccc([N+](=O)[O-])cc1[N+](=O)[O-],-9%,nt,nt,2%,0%,-2%[46.1 µM],-1%[46.1 µM],-5%
CCCCn1c(SCC(=O)Nc2ccc(C)c(S(=O)(=O)N3CCOCC3)c2)nnc1C(CC)N(C)C (stereo not given),-9%,nt,nt,nt,-10%,-19%,3%,0%
COc1cc(Cl)cc(NC(=O)CCN2CCN(C)CC2)c1,0%,3.9%,-1%,0%,1%,1%,22%,-12%

# Going on with the list.
SMILES,StopGo reporter,Cruzain inh Det,Cruzain inh noDet,NS1 inh,SARS PLpro yeast,LASV entry inh,Marburg entry inh,RE007 growth inh
Cc1c2cnn(-c3ccccc3)c(=O)c2c(C)n1CCCC(=O)N1CCN(C)CC1,-16%,2.4%,1%,-8%,-4%,nt,nt,2%
Cc1c(Cl)cccc1NC(=O)Nc1ccc2snnc2c1,0%,-7.7%,-26%,nt,nt,?,?,nt
O=C(c1cc2cc(F)ccc2[nH]1)N(Cc1cccnc1)CC1CCCN(C2CCCCC2)C1 (stereo not given),28%,nt,nt,-4%,-8%,nt,nt,3%
Cc1ccc(S(=O)(=O)N2CCCC2)cc1C(=O)NCCN1CCOCC1,-14%,nt,nt,12%,2%,-3%,-5%,0%
O=S(=O)(Nc1nc2ccccc2s1)c1ccc(Cl)nc1,55%[activator],nt,nt,-7%,2%,nt,nt,-6%
CCC1CN(C(=O)NCc2ccc(F)cc2)c2ccccc2O1 (stereo not given),-23%&-5%,-4.4%,2%,-4%,-3%,?,?,84%
CN(C)c1ccc(/C=C/C(=O)c2ccc3c(c2)OCO3)cc1,6%,nt,nt,nt,4%,?,-24%,?
CC(C)Nc1nc(NNc2nc(Cl)nc(NC(C)(C)C)n2)nc(NC(C)C)n1,-9%,nt,nt,-5%,1%,nt,nt,0%
C=C(C(C)=O)C(O)c1ccc([N+](=O)[O-])cc1 (stereo not given),nt,4.2%,-8%,nt,nt,?,?,nt
Cc1ccc(CNC(=O)CCc2c(C)nc3c4c(C)cc(C)nc4nn3c2C)cc1,-15%,1.6%,25%,nt,nt,14%[46.1 µM],6%[46.1 µM],nt
CC(C)Cc1nc(Nc2ccccc2C#N)c2nnn(Cc3ccccc3)c2n1,-28%,nt,nt,5%,-5%,?,?,-4%
Cc1cc(C)n2nc(SCCOc3ccccc3)nc2n1,45%[activator],nt,nt,-7%,1%,30%,?,16%
CCn1nc(C)c(CN2CCCC(CO)(Cc3cccc(Cl)c3)C2)c1C (stereo not given),?,nt,nt,-1%,1%,nt,nt,-15%
COc1ccc2c(c1)C1(C(=O)O)CC=CCC1(C(=O)O)C2 (stereo not given),0%,nt,nt,nt,nt,5%,-5%,-16%
